# Marburg entry inh = inhibitors of Marburg virus binding or cell entry | Marburg virus pseudotyped entry inhibition, cell reporter; control for the full effect not named in the record; about a third of the inactives were read at about 46 µM | Potency, µM (series often up to 37.8 µM), for the others: top-dose activity change, negative = inhibition, usual class: inhibitors | actives 1.8% (n = 300,000); active = well fitted inhibition curve with a large enough effect; inconclusive = small, poorly fitted or top-dose-only effect, or effect the other way; inactive = flat fitted curve, though single readings scatter; tested in HEK293 cells; about a fifth of its hits are not listed in these tables; further: on the % scale 0 is the no-effect control and ±100 the full control effect; luciferase read-out
# 2A StopGo = lowers the luciferase signal of an FMDV 2A StopGo reporter. human cells with a luciferase reporter of 2A StopGo recoding; control for the full effect not named in the record. Potency, µM (series often up to 57.9 µM), without a hit: at the top dose signal change, negative = less light. actives 1.2% (n = 410,000); active = well fitted falling curve with a large enough effect; inconclusive = small, poorly fitted or top-dose-only effect; inactive = no such curve, though single readings can be large or run the other way; tested in HEK293T cells; further: on the % scale 0 is the no-effect control and ±100 the full control effect; nearly all actives have a fitted effect of over 45% in size; luciferase light after 4 h
# RE007 growth inh = less growth of the S. pombe RE007 Vpr strain; actives 0.21% (n = 360,000); Potency, µM (top dose mostly 92.2 µM), for inactives: at the highest dose activity change, negative = less growth; AID 651644; S. pombe RE007 Vpr strain, BacTiter-Glo ATP luminescence, 24 h; control for the full effect not named in the record; active = well fitted falling curve with a large enough effect; inconclusive = small, poorly fitted or top-dose-only effect; inactive = no such curve, though single readings can be large or run the other way;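 further: on the % scale 0 is the no-effect control and ±100 the full control effect; nearly all actives have a fitted effect of over 50% in size; the assay follows cell death caused by Vpr and the record does not say whether a fall means rescue or toxicity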
#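 Fission yeast strain RE007, carrying one chromosomally integrated HIV-1 vpr copy, was seeded at OD 0.01 in PMG+AL medium with 23 nL pinned compound. After 24 h at 30 °C and 99% humidity, viability was read by BacTiter-Glo luminescence.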
# SARS PLP yeast = inhibitors of SARS-CoV papain-like protease in yeast. S. cerevisiae expressing SARS-CoV PLpro, growth rescue; control for the full effect not named in the record. Potency, µM (doses to about 32.9 µM), without a hit: top-dose activity, positive = growth rescue. actives 0.19% (n = 330,000). AID 485353; further: 0% is about no effect; nearly all actives have a fitted effect of over 55% in size; growth read by luminescence after 48 h
# Cruzain inh noDet = inhibitors of Trypanosoma cruzi cruzain without detergent | P25779 | purified cruzain, Z-FR-AMC fluorescence, no detergent | Potency, µM, for inactives: max response, negative = inhibition, actives largely listed as inhibitors | actives 2.3% (n = 200,000) | AID 1476; active means well fitted curve in the direction sought with a large enough effect; inconclusive means small, poorly fitted or top-dose-only effect, or another doubt; inactive means no such curve, though single readings can be large; an effect the other way counts as inactive or inconclusive;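 further: plate controls were enzyme without inhibitor for no effect and buffer without enzyme for full effect; nearly all actives have a fitted effect of over 40% in size; top concentration of the series not given in the record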
# Target sequence (P25779 123-467 limits assumed): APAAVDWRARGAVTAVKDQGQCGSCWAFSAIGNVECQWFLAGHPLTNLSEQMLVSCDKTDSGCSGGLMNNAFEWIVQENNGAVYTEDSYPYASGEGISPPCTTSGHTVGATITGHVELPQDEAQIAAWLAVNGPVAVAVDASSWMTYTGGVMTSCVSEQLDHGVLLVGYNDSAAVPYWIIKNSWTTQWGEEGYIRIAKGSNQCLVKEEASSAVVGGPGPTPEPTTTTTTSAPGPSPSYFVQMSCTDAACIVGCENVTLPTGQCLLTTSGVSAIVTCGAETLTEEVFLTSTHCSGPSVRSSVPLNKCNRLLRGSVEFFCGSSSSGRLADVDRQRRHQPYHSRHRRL
#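 Purified cruzain at 1.5 nM, pre-incubated 15 min with compound at room temperature in 100 mM sodium acetate pH 5.5, 5 mM DTT, 0.00005% Triton X-100. Reaction started with 2 uM Z-FR-AMC; AMC fluorescence increase over 60 s gives rate.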
# NS1 inh = blocks influenza NS1 protein function. S. cerevisiae slowed by influenza A NS1, growth recovery by OD600. Potency, µM (titrated, usually from 46.1 µM), for inactives: at the highest dose activity, positive = more growth. actives 0.4% (n = 270,000). AID 2326; further: actives are rising curves; nearly all actives have a fitted effect of over 50% in size
#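 A cell-based growth assay was used: compounds that relieve NS1-induced slow growth of budding yeast raise OD600. Assay medium was yeast nitrogen base with ammonium sulphate and -URA supplement, pH 6.0, with 2% galactose.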
# LASV entry inh = blocks Lassa virus binding to or entry into cells. Lassa virus pseudotype entry inhibition, cell reporter; control for the full effect not named in the record. Potency, µM (titrated, usually from 37.9 µM), without a hit: top-dose activity change, negative = inhibition, most hits filed as inhibitors. actives 1.2% (n = 300,000). AID 540256; active means well fitted inhibition curve with a large enough effect; inconclusive means small, poorly fitted or top-dose-only effect, or effect the other way; inactive means flat fitted curve, though single readings scatter; tested in HEK293 cells; further: on the % scale 0 is the no-effect control and ±100 the full control effect; nearly all actives have a fitted effect of over 50% in size; luciferase read-out
# Cruzain Triton = cruzain (T. cruzi) inhibition with detergent; actives 0.43% (n = 200,000); purified cruzain, Z-FR-AMC fluorescence, 0.01% Triton; AID 1478; Potency, µM, without a hit: max response, negative = inhibition, usual class: inhibitors; active means well fitted curve in the direction sought with a large enough effect; inconclusive means small, poorly fitted or top-dose-only effect, or another doubt; inactive means no such curve, though single readings can be large; an effect the other way counts as inactive or inconclusive;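 further: plate controls were neutral wells for no effect and buffer without enzyme for full effect; nearly all actives have a fitted effect of over 40% in size; top concentration of the series not given in the record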
#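 Read-out: AMC fluorescence (360 nm excitation, 450 nm emission), four reads over 2 min, first-to-third difference used. Conditions: cruzain 1.5 nM, Z-FR-AMC 2 uM, pH 5.5 acetate, 5 mM DTT, 0.01% Triton X-100.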
# An asterisk follows results filed as active; ? = inconclusive; . = not tested or not shown; & = joins results of further samples; [ ] = dose if it differs, or a comment. Unless noted, the call rests on the fitted dose curve; in most records, active means well fitted rising curve with a large enough effect; inconclusive means small, poorly fitted or top-dose-only effect; inactive means no such curve, though single readings can be large or run the other way. Potency means the concentration at half of the fitted maximal effect. Random draw from the library. Share with any hit: about 4.6%.
SMILES,Marburg entry inh,2A StopGo,RE007 growth inh,SARS PLP yeast,Cruzain inh noDet,NS1 inh,LASV entry inh,Cruzain Triton
O=C(COC(=O)c1cc(S(=O)(=O)N2CCOCC2)ccc1Cl)NCc1ccco1,17.8%,-10.2%,3.6%,1.1%,.,.,2.9%,.
COc1ccc2c(c1)-c1nc(NC(=O)c3cccs3)sc1CC2,?,-4.9%,-10.5%,-38.0%,?,?,?,-9.8%
CCS(=O)(=O)c1ccc(O)c(NC(=O)/C=C/c2ccccc2)c1,?,54.5%[activator],-2.4%,0.3%,.,-3.4%,4.1%,.
Cc1ccc2c(c1)N(CC(=O)Nc1ccc3c(c1)OCCO3)C(=O)CO2,21.7%,-23.4%,4.3%,12.6%,-4.8%,0.1%,7.8%,-0.4%
COc1ccc(NC(=O)CCS(=O)(=O)c2ccc3c(c2)oc(=O)n3C)cc1OC,.,-12.9%&-19.5%,14.4%,-4.0%,-7.4%,-2.7%,?,-0.9%
CCCCN(CCCC)C(=O)c1c[nH]c2ccc(S(=O)(=O)Nc3cccc(Cl)c3C)cc2c1=O,.,14.9%,.,-0.6%,-7.6%,.,-3.8%[46.1 µM],-10.3%
CCN(CC)c1nc(NN)nc(Nc2ccc(C)c(Cl)c2)n1,?,-6.9%,6.8%,.,.,.,-14.2%,.
O=C(CN1CCCC1=O)N1CCOCC1,-3.3%,9.7%,-8.7%,6.4%,-7.3%,-0.7%,2.5%,6.5%
COc1ccc(C(CNC(=O)CN2C(=O)NC3(CC(C)CC(C)(C)C3)C2=O)N2CCOCC2)cc1 (stereo not given),?,-17.0%,-4.3%,3.3%,5.4%,-8.1%,?,2.5%
CCOC(=O)Cn1cnc2scc(-c3ccc(C)cc3)c2c1=O,-17.6%[46.1 µM],-5.4%,-9.4%,-10.4%,.,-30.8%,-9.4%[46.1 µM],.
COc1cc(OC)cc(C(=O)NC(=S)Nc2ccc(NC(=O)c3ccco3)cc2)c1,?,-14.2%,15.5%,15.8%,-5.8%,26.2%,-5.0%,0.0%
CCOc1ccc(NC(=O)N2CCc3ccccc3C2)cc1,.,61.4%[activator],-7.7%,-4.4%,.,-16.3%,.,.
Cc1cc(OC(=O)c2ccccc2C(F)(F)F)c([N+](=O)[O-])c(=O)[nH]1,.,-20.1%,5.9%,1.9%,.,-4.1%,.,.
Cc1ccc(-n2nc(C(=O)O)c(C)c(C#N)c2=O)cc1Cl,27.9%[46.1 µM],-15.2%,-6.1%,0.8%,.,9.1%,23.8%[46.1 µM],.
O=C(Nc1ccc([N+](=O)[O-])cn1)c1cc(-c2cccc(Cl)c2)nc2ccccc12,-9.3%,-21.8%,5.5%,6.6%,?,12.1%,11.6%,-5.7%
O=C(c1cc2n(n1)C(C(F)(F)F)CC(c1ccc(Cl)cc1)N2)N1CCCC1 (stereo not given),9.9%&9.9%,1.8%,21.6%,-2.9%,12.7%,?,-1.6%,6.3%
O=C(NCCC1=CCCCC1)C1CCN(S(=O)(=O)c2cccc3nsnc23)CC1,8.9%,1.5%,-4.1%,2.5%,25.1µM*,3.8%,0.2%,-0.5%
COc1ccc(Nc2ncc(C(=O)N3CCN(c4ccc(F)cc4)CC3)c3ccccc23)cc1,?,?,8.8%,2.7%,7.2%&-8.3%,-9.9%,?,-12.8%&-6.9%
Cc1ccc(NC(=O)/C(Cl)=C\c2ccccc2)cc1,7.94µM*,-5.5%,-14.3%,-30.9%,-10.8%,-92.6%,4.47µM*,-3.1%
CCOC(=O)c1ccc(NC(=O)c2cccn(Cc3ccccc3F)c2=O)cc1,.,?,.,.,-2.1%,.,-19.4%[46.1 µM],-4.9%
CCCOP(=O)(OCCC)c1c([N+](=O)[O-])cc(C(F)(F)F)cc1[N+](=O)[O-],?,?,3.1%,-7.4%,10.4%,-5.4%,-1.5%,1.7%
CC(C)Oc1ccc(C(=O)NCc2cccs2)cc1,?,76.1%[activator],-11.0%,-3.1%,13.1%,-7.7%,-19.4%,1.0%
CC(=O)N1CCN(c2c(F)c(F)c(C(F)(F)F)c(F)c2F)CC1,?,?,7.4%,0.1%,.,2.5%,6.0%,.
CCOC(=O)c1c(NC(=S)Nc2ccc(Cl)cc2)sc(C)c1C,23.3%,3.0%,10.9%,16.7%,3.98µM*,-0.7%,23.3%,-3.5%
O=C(Nc1cccc([N+](=O)[O-])c1)c1cc(S(=O)(=O)Nc2ccccn2)ccc1Cl,-4.5%,-9.9%,8.7%,-0.4%,.,-5.3%,0.7%,.
CCCc1ccc2oc(C(=O)NCCc3cnn(C)c3)c(C)c2c1,-27.2%,-2.1%,-3.5%,-7.1%,.,-30.6%,?,.
COC(=O)CN1C(=O)C(C)(C)c2cc(S(=O)(=O)NCc3ccc(Cl)cc3)ccc21,.,10.8%,.,.,10.5%,.,9.8%[46.1 µM],-2.5%
COc1cc(-c2nc3ccccn3c2/N=C/c2ccc(F)cc2)ccc1O,22.3%[46.1 µM],19.2%,-17.1%,-2.5%,.,.,16.7%[46.1 µM],.
Cc1ccccc1-c1nc(CS(=O)(=O)CC(=O)NCCCc2ccccc2)c(C)o1,-2.0%[46.1 µM],-23.3%,.,.,?,.,10.2%[46.1 µM],-1.7%
Cc1ccc(-c2cc(C(F)(F)F)nc(SCC(=O)c3cccc([N+](=O)[O-])c3)n2)cc1,-4.6%,.,-3.4%,-4.5%,-1.7%,-8.7%,5.3%,1.6%
N#CCCn1cc(C(N)=O)c(-c2ccc3ccccc3c2)n1,-1.6%,43.0%[activator],4.4%,-7.6%,.,-6.0%,-22.1%,.
CN(C)c1ccc(NC(=O)Oc2ccccc2)cc1,14.2%,10.5%,?,11.6%,-8.1%,-56.7%,-18.9%,2.5%
O=C(COc1ccc2c(-c3ccccc3)cc(=O)oc2c1)Nc1ccc(CN2CCOCC2)cc1,?,-25.5%,-6.6%,-2.6%,.,1.4%,?,.
CCOC(=O)N1CCN(C(=O)c2ccccc2NC(=O)c2ccc(Br)cc2)CC1,?,6.3%,-1.5%,12.5%,-7.4%,-14.1%,20.6%,-1.4%
COc1ccc2[nH]c3c(c2c1)CCN1C(=O)C(CC(=O)NCCc2ccccn2)C[C@H](C(=O)N2CCCCC2)[C@@]31CCc1ccccc1 (stereo not given in full),-2.9%,6.8%,-1.9%,-2.2%,.,.,.,.
CCC(=O)N1CCc2cc(Br)cc(S(=O)(=O)CCC(=O)N(C)c3cccc(C)c3)c21,-4.7%[46.1 µM],5.5%,.,-3.2%,8.5%,.,1.2%[46.1 µM],-3.2%
CC(C)(C)c1ccc(NC(=O)Nc2ccc3ccccc3n2)cc1,.,28.8%,2.8%,-4.1%,.,1.0%,.,.
COC(=O)N/N=C/c1ccccc1,13.2%[46.1 µM],5.6%,-13.0%,1.9%,.,1.3%,6.2%[46.1 µM],.
CCCCN(C(=O)CSCC(=O)Nc1ccc(OC)cc1)c1c(N)n(CC(C)C)c(=O)[nH]c1=O,18.9%,-3.1%,4.0%,.,.,.,9.4%,.
COC(=O)c1nnc(-c2ccccc2)c(-c2ccccc2)n1,-4.8%,9.1%,12.8%,-5.3%,3.2%,-9.5%,-3.2%,-2.6%
Cc1ccc(CN2CCC(n3nccc3NC(=O)C3CCOC3)CC2)cc1 (stereo not given),?,-15.6%,13.2%,-1.9%,.,4.0%,-22.5%,.
Cc1ccc(S(=O)(=O)n2nc(OC(=O)c3ccccc3F)cc2N)cc1,-5.9%[46.1 µM],20.5%,-3.8%,-0.3%,.,-0.2%,-8.5%,.
CCn1cc(S(=O)(=O)CC(=O)N2CCc3ccccc32)c2ccccc21,.,-7.9%,0.1%,-3.0%,.,-2.4%,.,.
CC(=NCc1ccc2c(c1)OCO2)c1c(O)n(C)c(=O)n(C)c1=O,-8.0%,-5.5%,23.3%,3.8%,5.4%,-16.4%,3.2%,3.8%
CCOC(=O)C1CCN(C(=O)COC(=O)c2ccc3c(c2)C(=O)N(c2ccc(OCC)cc2)C3=O)CC1,1.8%,-26.7%,1.3%,0.8%,.,.,8.6%,.
O=C(Nc1ccccc1)c1cccc(S(=O)(=O)Nc2cccc(F)c2)c1,.,8.9%,.,.,-12.9%,.,-8.1%[46.1 µM],-8.1%
Cc1c(C)n(CCc2ccccc2)c2ncnc(NCCCN(C)C)c12,8.91µM*,-22.9%,10.1%,2.2%,.,7.9%,2.6%[46.1 µM],.
CC(C)CCNC(=O)CN(CCCN1CCOCC1)C(=O)Cn1nnc(-c2ccc(F)cc2)n1,0.1%,17.1%,13.0%,2.7%,15.3%,4.0%,26.9%[14.3 µM],4.4%
CN1CCN(c2nccc3c2ncn3C)CC1,-6.8%[46.1 µM],-2.5%,-5.3%,-1.9%,1.8%,-2.9%,1.8%,1.3%
O=C(c1ccco1)c1cn(CCOc2ccc(F)cc2)c2ccccc12,-4.1%[46.1 µM],-17.9%,.,.,17.0%,.,-13.4%[46.1 µM],-9.6%
CCOC(=O)C(=CN(CCc1ccccc1)CC(=O)OC)C(=O)OCC,2.9%,-15.5%,-22.1%,13.3%,-6.1%,23.7%,3.6%,1.0%
COC(=O)c1c(NC(=O)CN2CCN(C(=O)c3ccco3)CC2)c2c(C)cccc2n1C,23.4%,-29.5%,-6.7%,-8.1%,?,-2.7%,-0.6%,4.9%
COC(=O)[C@@H](NC(=O)NC1CCCc2ccccc21)C(C)C (stereo not given in full),4.0%,-0.8%,17.8%,-9.7%,16.5%,-12.4%,-0.1%,0.5%
N=C1c2ccccc2CN1NC(=O)C1CC1,15.4%,-8.8%,3.3%,8.4%,0.7%,-0.3%,-1.8%,3.7%
COCCCNc1ncnc2sc3c(c12)CCC(C)C3 (stereo not given),-5.6%,-8.8%,7.8%,-18.1%,?,-12.4%,4.3%,-5.4%

# Compound activity (PubChem BioAssay)
